# Source: PubChem BioAssay (several laboratories)
# Insulin prom inh: TRM-6 insulin promoter activity inhibition | TRM-6 cells (human fetal islet line), insulin promoter-eGFP reporter, imaging; reporter expression induced with tamoxifen | inhibition, % at 2 µM | 130,000 tested, 0.9% active;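 active means inhibition above the mean plus 3 SD, with well images judged a real hit on visual review, cut at about 60% in these data, passing the limit was not always enough; inconclusive means inhibition over the cutoff but images rejected on review; inactive means inhibition not above the cutoff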
# HSV augment: increases HSV replication in cells | 220,000 tested, 0.005% active | maximum fold increase | HSV replication augmentation in cells, fold increase;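 active means peak rise of 1.5-fold or more in the series; inconclusive means self-fluorescent or not available for retest; tested in PC3 cells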;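 further: first round at 10 µM; read as green reporter fluorescence; hits show the peak of a series up to 25 µM; 1 = signal of infected wells without compound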
# RGS16-Gao: RGS16-Galphao interaction regulator (human); O15492+P09471; bead-based flow cytometry RGS16-Galphao binding, fluorescence; actives lie on both sides; binding response (% of control), % at 10 µM; 220,000 tested, 0.38% active; AID 1441;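 active means below 25% or above 175%, edge rows of some plates excepted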;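 further: Galphao activated by GDP with aluminum fluoride before binding; 100% = wells without compound and 0% = beads without RGS; some results beyond the cut were filed as inactive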
# PKD1 inh: inhibitors of human PKD1 kinase. inhibition, %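 (about 10 µM by stock and volumes)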. PKD1 kinase fluorescence polarization assay. AID 797. 200,000 tested, 0.056% active;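 active means inhibition of 50% or more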;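 further: controls were vehicle for no effect and a reference inhibitor for full effect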
# Target sequence (Q15139 whole entry, looked up): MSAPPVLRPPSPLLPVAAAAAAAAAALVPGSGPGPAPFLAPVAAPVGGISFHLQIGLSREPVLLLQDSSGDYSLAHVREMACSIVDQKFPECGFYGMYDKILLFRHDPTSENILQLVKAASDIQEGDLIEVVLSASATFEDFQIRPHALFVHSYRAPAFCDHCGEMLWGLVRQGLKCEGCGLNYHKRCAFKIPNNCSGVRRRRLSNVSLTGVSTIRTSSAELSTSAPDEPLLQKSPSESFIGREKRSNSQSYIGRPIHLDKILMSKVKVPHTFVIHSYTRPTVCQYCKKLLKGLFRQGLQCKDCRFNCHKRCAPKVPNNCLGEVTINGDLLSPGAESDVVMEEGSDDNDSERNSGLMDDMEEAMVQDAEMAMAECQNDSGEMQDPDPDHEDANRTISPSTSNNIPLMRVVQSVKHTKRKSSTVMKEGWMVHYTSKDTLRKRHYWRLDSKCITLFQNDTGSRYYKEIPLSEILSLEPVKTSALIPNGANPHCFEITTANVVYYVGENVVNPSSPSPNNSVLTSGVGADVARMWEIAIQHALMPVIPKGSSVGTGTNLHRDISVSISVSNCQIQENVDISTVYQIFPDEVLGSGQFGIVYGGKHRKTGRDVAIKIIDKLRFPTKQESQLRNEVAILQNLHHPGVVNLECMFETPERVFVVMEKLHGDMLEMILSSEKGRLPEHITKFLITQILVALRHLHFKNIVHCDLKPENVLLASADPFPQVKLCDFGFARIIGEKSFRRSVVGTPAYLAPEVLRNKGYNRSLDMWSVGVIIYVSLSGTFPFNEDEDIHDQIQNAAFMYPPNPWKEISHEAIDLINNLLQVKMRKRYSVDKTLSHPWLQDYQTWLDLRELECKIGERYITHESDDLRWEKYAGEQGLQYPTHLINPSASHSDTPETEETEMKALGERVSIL
# GALR2 ag: GALR2 (human) receptor agonism. O43603. GALR2-expressing cells, agonist activation read-out. activation, %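 (tested at 5 µM)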. 140,000 tested, 0.48% active. AID 803;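 active means above mean plus 3 SD of all compounds, about 5% in these data, not always enough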;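 further: 0% = vehicle buffer wells and 100% = reference agonist at full effect; tested in CHO reporter cells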
# Insulin prom inh cell count: further read-out of Insulin prom inh, marked with its call; normalized cell count, %; measured here: cell count, toxicity; reference of the scale not given here;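 cells exposed to compound for 48 h; stained nuclei by imaging scaled within each plate; lower means fewer cells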
# HSV augment primary fold: also measured in HSV augment; calls as there; fold increase; compound at 10 µM; measured here: primary screen fold increase 10 uM; tested in PC3 cells;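 GFP signal in the first replicate; 1 = infected wells without compound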
# * = called active by the depositor; i = inactive; ? = inconclusive; · = not tested or not shown.
SMILES,Insulin prom inh,Insulin prom inh cell count,HSV augment,HSV augment primary fold,RGS16-Gao,PKD1 inh,GALR2 ag
O=C(COc1ccccc1)Nc1ccc(S(=O)(=O)N2CCOCC2)cc1,21,110,i,0.95,93,-7,-1.7
CN1CC(=O)N(C)c2ncn(Cc3ccccc3)c2C1=O,·,·,i,0.9,92,-1,-0.9
O=C1CC(c2ccco2)Cc2nc(N3CCN(Cc4ccc5c(c4)OCO5)CC3)ncc21 (centres undefined),50,126,i,1,88,0,-0.1
Cc1ccnc(NC(=O)c2ccccc2[N+](=O)[O-])c1,·,·,i,0.89,92,-1,-1.3
O=C(Cn1cnc2c(cnn2-c2ccc(F)cc2)c1=O)NCCc1ccccc1,43,171,i,0.99,104,5,-0.5
O=C(Cn1ncc2c1-c1ccccc1OC2)Nc1ccc(S(=O)(=O)N2CCCCC2)cc1,·,·,i,1,106,0,-4.2
Cc1cc(/C=C2\C(=N)N3N=C(c4ccco4)SC3=NC2=O)c(C)n1Cc1ccccc1,·,·,i,1.2,99,·,·
C=CCn1c(O)c(N=NC(=O)c2cccnc2)c2cc(Br)ccc21,·,·,i,0.9,102,·,·
CCC(C)n1c(-c2cccs2)nc2nc3ccccc3nc21 (centres undefined),·,·,i,0.79,93,-4,5.1
C=CCn1c(=S)[nH]c2scc(-c3ccc(C)o3)c2c1=O,-17,57,i,1,54,8,·
COc1ccc(NC(=O)c2ccc(NC3CC(=O)N(c4ccc(C)cc4C)C3=O)cc2)cc1 (centres undefined),·,·,i,0.96,102,·,·
COc1ccc(S(=O)(=O)N2CCN(C)CC2)cc1C,·,·,i,1,99,-14,-3.6
C=CCOn1c(C)c(C(C)=O)c2c3nonc3ccc21,61,143,i,1.1,105,-10,-2.0
CC(C(=O)NC(=O)NCc1ccccc1)N1C(=O)c2ccccc2C1=O (centres undefined),-36,125,i,0.82,·,0,1.3
CCS(=O)(=O)C(=C1NCCO1)S(=O)(=O)CC,32,155,i,0.98,106,-5,-1.2
CC#CCN1c2ccccc2[C@]23C[C@@H](C(=O)OC)N(C(=O)c4ccco4)C2=NC(C(=O)OC)=C(C(=O)OC)[C@H]13,·,·,i,0.9,100,·,·
Cc1nc2ccccn2c1/C(O)=C1\C(=O)C(=O)N(CCN(C)C)C1c1cccnc1 (centres undefined),-24,94,i,1,120,-6,0.1
O=C(Nc1nnc(C2CC2)s1)C1CCCCN1S(=O)(=O)c1ccccc1 (centres undefined),·,·,i,0.94,102,-3,·
CCN1C(=O)c2cccc3c(NC(=O)c4ccc(S(=O)(=O)N(C)C)cc4)ccc1c23,-15,88,i,0.95,108,8,0.2
Cc1ccc(NC(=O)c2cc(S(=O)(=O)N3CCCCC3)ccc2N2CCOCC2)cc1F,24,64,i,0.87,107,-2,-1.3
Cc1ncc(S(=O)(=O)c2ccccc2)c(-c2ccccc2)n1,33,86,i,1,82,0,2.8
CCOC(=O)/C(N=O)=C(\O)C1CCN(C(=O)OCC)CC1,·,·,i,1,94,-11,-1.4
COc1ccccc1C1=NC(c2ccc(F)cc2)N=C1C (centres undefined),20,83,i,0.97,95,1,·
COc1ccccc1C(=O)Oc1cc(N)n(S(=O)(=O)c2ccccc2)n1,·,·,i,0.9,101,-6,·
CCOc1ccc(CN(C(=O)c2oc3cc(C)ccc3c2C)C2CCS(=O)(=O)C2)cc1 (centres undefined),66*,45*,i,0.82,109,-7,3.5
C=CCn1c(NCc2c[nH]c3ccccc23)nc2ccccc21,-119,114,i,1,122,2,-2.7
CCCCN(CCCC)Cc1ccc(C(=O)NNC(=O)Nc2ccc(Cl)cc2)o1,·,·,i,0.89,91,-8,·
Cc1csc(NC(=O)c2cc3c(C)nn(Cc4ccccc4Cl)c3s2)n1,8,66,i,1,88,-8,0.2
CC(=O)c1ccc(-n2ccnc2)cc1,·,·,i,0.99,93,·,·
CSc1ncccc1C(=O)Nc1nc2ccc(S(C)(=O)=O)cc2s1,·,·,i,1.1,102,0,·
CC(=O)Oc1cc(OC(C)=O)c2c(=O)c(-c3ccc4c(c3)OCCCO4)c(C)oc2c1,·,·,i,0.93,108,·,·
Clc1ccc(-c2nnsc2SCc2ccccc2)cc1,26,123,i,0.99,107,3,-1.7
O=C(CC1Nc2cccc3cccc(c23)NC1=O)Nc1ccc(F)cc1 (centres undefined),-24,104,i,0.9,93,-6,·
CCOC(=O)c1[nH]c(C)c(C(=O)NCc2ccc(Cl)cc2)c1C,-22,98,i,0.94,96,0,0.0
Nc1c(C(O)(C(F)(F)F)C(F)(F)F)cc(C(O)(C(F)(F)F)C(F)(F)F)c2ccccc12,-24,47,i,0.57,97,-5,-0.9
COc1cc(S(=O)(=O)N2CCOCC2)ccc1N,·,·,i,1.1,85,3,·
Cc1ccc(NC(=O)c2ccnc(C(C)(C)C)c2)cc1,·,·,i,0.83,128,2,-1.9
O=C(O)C1C2C=CC(C3CC23)C1C(=O)O (centres undefined),28,133,i,0.84,65,-4,-1.4
O=C(c1cccc(C(F)(F)F)c1)C1CCCN(Cc2cccc(OCCO)c2)C1 (centres undefined),·,·,i,0.95,102,-2,·
O=C(NC(=S)NCc1ccccc1)C1CC1,·,·,i,1.2,101,-1,·
CS(=O)(=O)N1CCCC(C(=O)Nc2ccc(F)cc2F)C1 (centres undefined),·,·,i,0.98,106,-11,·
CCCN(C(=O)CSc1nnnn1C)C1CCS(=O)(=O)C1 (centres undefined),·,·,i,0.98,103,0,·
c1ccc(Nc2nc3ccccc3o2)cc1,68*,83*,i,0.9,126,0,-0.3
CCCCNC(=S)N/N=C/c1cccc(OCC)c1O,·,·,i,0.93,101,·,·
O=C(Nc1ccc(N2CCCCC2)cc1)c1cncc(Br)c1,0,137,i,0.93,101,2,-2.5
Cc1nn(CC(=O)N/N=C/c2ccc3c(c2)OCO3)c(C)c1Br,·,·,i,0.94,84,1,-1.5
O=C(COc1ccc2c(c1)C(=O)CC1(CCCCC1)O2)NCc1ccccn1,·,·,i,0.98,107,5,-1.6
Fc1ccc(N2CCN(C3=Nc4cccc5cccc3c45)CC2)cc1,-40,62,i,0.86,108,3,·
O=C1/C(=C/c2cccc3ccccc23)CCCc2ccccc21,24,126,·,·,112,-11,-0.3
CCCC(=O)Nc1cc(C(F)(F)F)ccc1N1CCOCC1,25,141,i,0.89,101,-10,·
CCCCOC(=O)Nc1cc(C)c(Cl)cc1OC,-34,132,i,0.98,100,-1,-0.8
CN(C(=O)CSc1nnc(NCc2ccccc2)s1)C1CCS(=O)(=O)C1 (centres undefined),-19,169,i,1.2,102,3,·
Cc1ccccc1OCc1nnc(SCC(=O)NCc2ccccc2)n1C,14,105,i,0.84,107,-3,-0.4
O=C1CC(CCC(=O)NC2CC2)c2ccccc2N1 (centres undefined),50,130,i,1,99,-3,0.5
Cc1cc2n(n1)C(c1ccc(N(C)C)cc1)Nc1ccccc1-2 (centres undefined),0,50,i,0.81,102,-16,2.9
COc1cc(N)c(Br)cc1C(=O)O,·,·,i,1,101,3,·
Cc1cccc(C)c1NC(=O)N1CC=C(n2c(=O)[nH]c3ccccc32)CC1,·,·,i,0.95,88,-6,-1.7
CN(C)C1=NC(=O)/C(=C\c2ccccc2)S1,41,75,i,0.91,98,1,·
Cc1ccc(-c2nnn3c2nc(NCCc2ccc(S(N)(=O)=O)cc2)c2ccccc23)cc1,0,81,i,0.92,158,0,0.9
N#Cc1c(-c2ccccc2)nc2n1CCS2,35,114,i,0.91,98,-6,·

# Other entries follow.
SMILES,Insulin prom inh,Insulin prom inh cell count,HSV augment,HSV augment primary fold,RGS16-Gao,PKD1 inh,GALR2 ag
COc1ccccc1CCNC(=O)c1ccoc1C,3,141,i,0.93,103,-5,-0.2
CCC(Sc1nc(N)c(NC(=O)c2ccc(OC)cc2)c(=O)[nH]1)C(=O)O (centres undefined),·,·,i,0.98,96,-2,·
O=c1[nH]c(CN(CCc2ccccc2)S(=O)(=O)c2ccc(Cl)cc2)nc2ccccc12,-21,65,i,0.91,100,-3,-0.1
COc1ccc2cc(C(N)=O)c(=Nc3ccccc3)oc2c1,14,144,i,0.85,94,-2,·
COc1ccc(CCNc2oc(-c3ccco3)nc2C#N)cc1,60,49,i,0.8,100,3,-1.5
CC(=O)N1CCN(c2ccc(N=Cc3c(O)n(Cc4ccccc4)c(=O)[nH]c3=O)cc2)CC1,29,134,i,0.95,109,-4,0.2
CCOC(=O)c1c(C(=O)OCC)c(C)n(CCc2ccc(OC)c(OC)c2)c1C,-6,98,i,1,105,1,-0.6
CC1=C(C(=O)Nc2ccc(F)cc2)C(c2ccc(C)o2)C2=C(CC(C)(C)CC2=O)N1 (centres undefined),-296,43,i,1,100,-3,-0.9
COc1ccc(CCCc2n[nH]c(=S)n2C)cc1C,8,69,·,·,82,5,·
CC(C)Sc1cc(N2CCOCC2)nc(-c2ccc(Cl)cc2)n1,·,·,i,0.89,95,8,-1.9
COc1ccc(N2C(=O)CSCC2=O)cc1OC,·,·,i,0.99,98,-3,·
COc1ccc(C2CCN(Cc3cccnc3)CC2O)cc1 (centres undefined),·,·,i,0.95,100,-18,-1.3
CCOC(=O)c1nc2cc3n(c(C)c-2c1C)C(C)C(C)=C3C (centres undefined),7,72,i,1,101,4,-0.3
CCOc1ccc(N2C(=O)S/C(=C\c3ccc(O)c(OC)c3)C2=O)cc1,·,·,?,·,100,·,·
COc1cccc(C(=O)NC(=S)N2CCN(c3ccc(C(F)(F)F)cc3[N+](=O)[O-])CC2)c1,10,122,i,0.94,95,0,0.0
CCc1ccccc1NC(=S)N(Cc1cccnc1)Cc1ccco1,-14,73,i,1.1,119,-1,0.5
Cn1c(CO)cnc1SCc1ccc([N+](=O)[O-])cc1,·,·,i,0.85,104,3,-3.5
Cc1nc2n[nH]c(N)c2c2c1COC(C)(C)C2,22,108,i,0.91,107,3,-2.0
NC(=O)NC(=O)COC(=O)c1sc2ccccc2c1Cl,·,·,i,0.92,99,·,·
OCCC1CN(Cc2ccc3cc(Cl)ccc3n2)CCN1Cc1ccsc1 (centres undefined),·,·,i,1.1,90,2,·
CCc1ccccc1NC(=O)c1ccc(F)c(S(=O)(=O)N2CCC(C(N)=O)CC2)c1,·,·,i,0.86,105,-5,-2.1
O=C(/C=N/O)NCCCN1CCCCCC1,43,105,i,0.95,94,-7,-1.0
C[N+]1(CCOC(=O)C2(c3ccccc3)CCCC2)CCCCC1,47,122,i,0.95,97,-4,·
COCc1[nH][nH]c(=O)c1C=Nc1ccc(F)cc1F,-19,95,·,·,102,-7,-2.0
CCOC(=O)C1=C(C)NC(C)=C(C(=O)OC)C1c1cccc(Cl)c1Cl (centres undefined),5,99,i,0.73,111,6,0.6
O=C1Cc2ccccc2N1c1ccccc1,35,83,i,0.8,31,-9,-1.1
O=C(O)c1c(Cl)c(Cl)c(Cl)c(Cl)c1C(=O)N1CCCCCC1,43,93,i,0.96,112,-3,·
Cc1nc2c(C)c(C)c(C)c(C)c2nc1C,·,·,i,0.96,105,·,·
Cc1nc2ccccc2c2oc(C(=O)NC3CC3)cc12,·,·,i,0.87,111,10,-3.0
Cc1ccc(C(=O)NC(NCC2CCCO2)C(Cl)(Cl)Cl)cc1 (centres undefined),·,·,i,0.97,85,1,-1.5
CCOC(=O)c1oc2ccccc2c1NC(=O)CN1CCN(C)CC1,·,·,i,0.96,101,1,1.2
